INS promoter inh: TRM-6 insulin promoter activity inhibition | AID 1273 | inhibition, % at 2 µM | TRM-6 cells (human fetal islet line), insulin promoter-eGFP reporter, imaging; reporter expression induced with tamoxifen | hit rate 0.9% among 130,000;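 active = inhibition above the mean plus 3 SD, with well images judged a real hit on visual review, cut at about 60% in these data, passing the limit was not always enough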
RGS16-Gao: modulates binding between human RGS16 and Galphao; O15492+P09471; bead-based flow cytometry RGS16-Galphao binding, fluorescence; actives lie on both sides; binding response (% of control), % at 10 µM; hit rate 0.38% among 220,000;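 active = below 25% or above 175%, edge rows of some plates excepted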;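 note: Galphao activated by GDP with aluminum fluoride before binding; 100% = wells without compound and 0% = beads without RGS; some results beyond the cut were filed as inactive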
PKD1 kinase inh: PKD1 (human) kinase inhibition | PKD1 kinase fluorescence polarization assay | inhibition, %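 (about 10 µM by stock and volumes)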 | Q15139 | hit rate 0.056% among 200,000 | AID 797;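 active = inhibition of 50% or more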;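 note: controls were vehicle for no effect and a reference inhibitor for full effect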
Target sequence (Q15139 whole entry, looked up): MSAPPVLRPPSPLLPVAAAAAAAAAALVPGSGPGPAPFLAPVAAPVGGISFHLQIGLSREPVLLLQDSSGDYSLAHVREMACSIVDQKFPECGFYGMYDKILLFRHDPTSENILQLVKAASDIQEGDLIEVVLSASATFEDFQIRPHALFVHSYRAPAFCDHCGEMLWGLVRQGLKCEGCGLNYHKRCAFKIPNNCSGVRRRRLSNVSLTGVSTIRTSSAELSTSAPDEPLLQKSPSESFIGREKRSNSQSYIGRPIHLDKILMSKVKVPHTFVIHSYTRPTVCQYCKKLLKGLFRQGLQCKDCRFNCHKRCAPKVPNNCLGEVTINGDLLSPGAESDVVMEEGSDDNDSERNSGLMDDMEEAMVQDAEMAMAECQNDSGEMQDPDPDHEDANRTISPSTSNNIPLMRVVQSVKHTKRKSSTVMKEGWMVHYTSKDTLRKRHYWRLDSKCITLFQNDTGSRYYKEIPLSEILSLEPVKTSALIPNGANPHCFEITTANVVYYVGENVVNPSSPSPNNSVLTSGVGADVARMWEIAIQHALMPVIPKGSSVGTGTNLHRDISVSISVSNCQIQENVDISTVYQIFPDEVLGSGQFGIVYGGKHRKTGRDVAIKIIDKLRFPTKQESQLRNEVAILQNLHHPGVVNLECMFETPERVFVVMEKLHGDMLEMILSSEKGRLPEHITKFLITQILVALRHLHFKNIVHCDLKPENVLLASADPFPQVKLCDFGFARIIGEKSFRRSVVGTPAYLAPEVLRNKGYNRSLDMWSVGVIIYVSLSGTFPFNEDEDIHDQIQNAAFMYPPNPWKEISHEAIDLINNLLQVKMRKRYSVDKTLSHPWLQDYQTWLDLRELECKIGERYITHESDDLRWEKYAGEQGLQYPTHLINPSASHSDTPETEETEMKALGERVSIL
HSV replic up: increases HSV replication in cells | HSV replication augmentation in cells, fold increase | maximum fold increase | hit rate 0.005% among 220,000 | AID 1956;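 active = peak rise of 1.5-fold or more in the series; tested in PC3 cells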;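 note: first round at 10 µM; read as green reporter fluorescence; hits show the peak of a series up to 25 µM; 1 = signal of infected wells without compound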
GALR2 ag: activates the human galanin receptor 2 | activation, %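 (tested at 5 µM)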 | O43603 | AID 803 | GALR2-expressing cells, agonist activation read-out | hit rate 0.48% among 140,000;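 active = above mean plus 3 SD of all compounds, about 5% in these data, not always enough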;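 note: 0% = vehicle buffer wells and 100% = reference agonist at full effect; tested in CHO reporter cells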
INS promoter inh cell count: second read-out of INS promoter inh, no call of its own (marks repeat the call); normalized cell count, %; measured here: cell count, toxicity; reference of the scale not given here;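 cells exposed to compound for 48 h; stained nuclei by imaging scaled within each plate; lower means fewer cells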
HSV replic up primary fold: recorded beside HSV replic up, whose call it bears; fold increase; compound at 10 µM; measured here: primary screen fold increase 10 uM; tested in PC3 cells;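 GFP signal in the first replicate; 1 = infected wells without compound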
An asterisk follows results filed as active; i = inactive; / = not tested or not shown.

SMILES	INS promoter inh	INS promoter inh cell count	RGS16-Gao	PKD1 kinase inh	HSV replic up	HSV replic up primary fold	GALR2 ag
COc1cccc(-n2c(Cc3cc(=O)[nH]c(=O)[nH]3)nnc2SCc2cccnc2)c1	/	/	103	-3	i	0.91	-2.9
CCC(C)(C)NC(=O)COc1ccc(C(=O)c2ccccc2)cc1	-13	105	100	3	i	0.9	/
NCCCCCc1nnc(SCC(=O)Nc2cccc(Cl)c2)o1	/	/	98	-15	i	0.87	1.1
CCCSC1=N/C(=C\C=C\c2ccco2)C(=O)S1	-4	65	101	-8	i	0.96	-1.1
COc1ccc(CC(NC(C)=O)C(=O)NC2CCN(c3c4c(nc5ncnn35)CCC4)CC2)cc1OC (stereo not drawn)	/	/	100	/	i	1	/
Cc1ccc(C)c(S(=O)(=O)NCC(=O)Nc2sc3c(c2C(N)=O)CCC(C)C3)c1 (stereo not drawn)	-3	146	90	-2	i	0.91	0.0
COCCn1nnnc1C(C(C)C)N(Cc1cccnc1)Cc1cc2cc(OC)ccc2[nH]c1=O (stereo not drawn)	-50	82	99	-4	i	0.94	1.0
COC(=O)[C@@H]1C[C@@]2(O)[C@H](O)[C@H](O)[C@H](O)C[C@H]2N1Cc1cccc2ccccc12	/	/	95	/	i	0.81	/
Nc1nc(-c2ccco2)nn1C(=O)c1ccc(F)cc1	/	/	102	13	i	0.98	/
Cc1nnc(SCC(=O)NC(C)(C)C)n1C1CCCCC1	8	166	105	-3	i	1	-1.5
N#C/C(=C(/O)c1ccc([N+](=O)[O-])cc1)c1nc2ccccc2[nH]1	/	/	100	/	i	1.2	/
CCN1CCN(C2CC(=O)NC2=O)CC1 (stereo not drawn)	12	86	98	0	i	0.95	/
COc1ccc(CCNC(=O)COc2ccc(N(C)S(=O)(=O)c3ccc(C)cc3)cc2)cc1OC	/	/	91	-7	i	0.99	/
COCCCNS(=O)(=O)c1ccc(Cl)c(C(F)(F)F)c1	-36	71	105	-9	i	1	/
CCc1ccc(CN(C)CC(=O)Nc2ccccc2[N+](=O)[O-])cc1	/	/	107	3	i	1	-1.4
Cc1cccc(COCCN2CCN(S(=O)(=O)c3ccccc3)CCC2=O)c1	/	/	103	/	i	0.98	/
S=C(Nc1ccc(Oc2ccccc2)cc1)NC1CCCC1	8	89	166	2	i	1	-1.9
CNC(=O)C1CC(=O)N(CCc2ccc(OC)cc2)C(=Nc2ccc(OC)cc2)S1 (stereo not drawn)	-50	62	110	-9	i	0.98	-2.1
O=C(Nc1ccc(NC(=O)c2ccco2)cc1)c1ccc2c(c1)OCO2	/	/	100	4	i	0.82	-2.0
CN(C)S(=O)(=O)c1cccc(C(=O)NCc2ccco2)c1	-10	78	99	5	i	1.4	-1.9
CC(C)CC(COCc1cccc(Cl)c1)N1CCN(C(=O)c2ccc(C(F)(F)F)cc2)CCC1=O (stereo not drawn)	-50	107	105	-4	i	0.83	-1.2
CC(Oc1ccc(Cl)cc1)C(=O)NCCCn1ccnc1 (stereo not drawn)	-35	93	106	0	i	0.98	-1.3
CN1CCN(c2ncnc3c2[nH]c2ccc(F)cc23)CC1	-9	146	104	39	i	0.91	-2.1
N#CC1=C(N)N(c2ccc(Cl)c(Cl)c2)C(=O)C1	9	138	116	-2	i	1	/
CC(C)OC(=O)C1C(=O)CC(C)(O)C(C(=O)OC(C)C)C1c1ccc(F)cc1 (stereo not drawn)	7	71	99	-7	i	1.3	-0.4
COC(=O)c1cccc(C(=O)N2CCCC(C(=O)c3cc(F)ccc3F)C2)c1 (stereo not drawn)	/	/	105	-6	i	0.91	/
CN(CC(=O)Nc1cccc2ccccc12)C(=O)/C=C/c1cccs1	28	100	103	-2	i	1.1	0.5
Cc1ccc2c(c1)C1(C)C(C(C)(C)N2C=O)C1(Cl)Cl (stereo not drawn)	/	/	92	/	i	0.95	/
COC(=O)c1cc(C(=O)N2CCN(c3ccccc3OC)CC2)cc([N+](=O)[O-])c1	-207	6	99	3	i	0.79	/
CC(C)C(=O)Nc1nnc(SCC(=O)NCc2ccco2)s1	/	/	90	0	i	1.1	-1.0
Cc1cccc(C)c1NC(=O)N1C(C(=O)O)CSC1C(=O)O (stereo not drawn)	50	68	98	-13	i	0.83	-3.7
COc1ccc(-n2c(NN)nc3sc4c(c3c2=O)CCCC4)cc1	/	/	94	-10	i	0.95	/
COc1ccc(OC)c2sc(NC(=O)CCSc3ccccc3)nc12	/	/	99	-5	i	0.84	-0.9
CCOC(=O)C(NC(=O)c1ccc(OC)cc1)(N1CCOCC1)C(F)(F)F (stereo not drawn)	57	89	63	-13	i	0.96	-1.1
NC(=S)N/N=C/c1ccccc1[N+](=O)[O-]	/	/	99	-5	i	0.94	/
O=C(Nc1nnc(C(F)(F)F)s1)c1c(F)cccc1F	/	/	117	/	i	0.96	/
O=c1/c(=C/c2ccco2)sc2n1CN(c1cccc(Br)c1)CN=2	4	130	102	-5	/	/	-1.6
CN(C)/C=N/c1ncc(C(=O)c2ccc3ccccc3c2)s1	52	107	105	-6	i	0.75	0.6
CCCN1CCC(=NNc2ccc(S(N)(=O)=O)cc2[N+](=O)[O-])CC1	40	90	95	3	i	0.92	/
CCOC(=O)CSc1nc2c(c(=O)[nH]c(=O)n2C)n1CCc1ccccc1	-65	102	85	0	i	0.94	-0.1
N#CCCN1CCN(S(=O)(=O)c2ccc(S(=O)(=O)N3CCCC3)cc2)CC1	0	74	102	-7	i	0.72	-0.6
COCCn1cnc2c1c(=O)n(CC(=O)Nc1cc(C)on1)c(=O)n2Cc1ccccc1	24	209	102	-8	i	0.94	-0.8
CC(=C\C(=O)O)/C(=C/c1ccc(C)o1)C(=O)O	14	113	53	-2	i	0.74	-0.2
CC(C)NCCCOc1ccc(Cl)cc1Br	-35	83	145	5	i	1	-0.6
COCC(=O)Nc1cc([N+](=O)[O-])ccc1OC	21	156	106	-5	i	0.84	-0.6
CCCSc1nc(SCC(=O)NCc2ccccc2)c2c3c(sc2n1)COC(C)(C)C3	-23	107	97	-1	i	0.78	-0.9
C=CCn1c(SC2CCOC2=O)nc2sc(CC)cc2c1=O (stereo not drawn)	13	119	108	16	i	0.9	0.2
N#Cc1ccc(C23CC4(C2)[C@H](CN(CC2CCCCC2)[C@@H]4c2ccccc2)C3c2ccc(Cl)nc2)cc1 (stereo partly drawn)	/	/	102	/	i	0.83	/
Cc1c(C(=O)N(C)C)c2ccc(Cl)cc2n1O	42	135	103	0	i	0.99	-0.7
Cc1ccccc1C(=O)NNC(=O)CN1C(=O)c2ccccc2C1=O	-16	115	100	-10	i	0.85	-2.7
O=S(=O)(Nc1ccccc1)c1ccc(Oc2ncc(C(F)(F)F)cc2Cl)cc1	-33	110	104	-14	i	0.82	-0.2
CCCOP(=O)(c1ccccc1)c1ccccc1	-39	92	113	3	i	1.2	0.1
C/C(=N/NC(=O)C1CC1(c1ccccc1)c1ccccc1)c1ccco1 (stereo not drawn)	/	/	98	7	i	1.1	-0.2
COc1ccc(C(=O)NC(=S)NNC(=O)c2ccc(NC(=O)C(C)C)cc2)cc1	31	128	97	-1	i	0.85	-1.6
COc1ccc(-c2[nH]ncc2CNCC(C)(C)N2CCOCC2)cc1F	/	/	101	5	i	1.6	/
Cc1cc(C)n(CCSCC(=O)O)n1	3	73	102	-3	i	0.86	-3.3
Cc1ccc2c(c1)sc1ncc(NC(=O)c3ccc(F)cc3)c(=O)n12	25	104	97	3	i	0.97	/
Nc1c(C(=O)Nc2ccccc2)c2nc3ccccc3nc2n1-c1ccc(O)cc1	/	/	100	/	i	0.77	/
CCCn1nnc(NC(=O)c2ccco2)n1	-21	102	92	-7	i	0.93	-3.8
CC(C)(C)c1ccc(S(=O)(=O)N2CCSC2)cc1	50	103	108	5	i	0.97	0.1

Further compounds follow:
SMILES	INS promoter inh	INS promoter inh cell count	RGS16-Gao	PKD1 kinase inh	HSV replic up	HSV replic up primary fold	GALR2 ag
COc1ccccc1C(=O)Nc1nnc(SCC(=O)Nc2ccc3c(c2)oc2ccccc23)s1	-33	160	111	-8	i	0.95	-0.8
C=C(C(=O)O)C(CCCCCC)C(=O)O (stereo not drawn)	/	/	97	12	i	0.94	/
O=C(NCc1nnc(SCc2ccccc2)n1-c1ccc(F)cc1)C12CC3CC(CC(C3)C1)C2	/	/	102	4	/	/	0.9
COc1ccc(C(C)=O)cc1CSc1nc2cc(C(=O)O)ccc2c(=O)n1Cc1ccccc1	-38	121	102	4	i	1.1	0.2
Cc1cc(=O)oc2cc(OCC(=O)N3CCc4ccccc4C3)ccc12	/	/	101	-4	i	1	-0.6
CCC(NC(=O)Nc1ccc(O)cc1)(C(F)(F)F)C(F)(F)F	/	/	99	6	i	0.78	-1.7
CCC(C)[C@H](NC(=O)CCn1nnc2ccccc2c1=O)C(=O)O (stereo partly drawn)	21	95	98	-7	i	0.96	-1.1
CC(C)NC(=O)C1CCN(c2ccc(S(=O)(=O)N3CCOCC3)cc2Cl)CC1	/	/	92	/	i	1	/
CCN(CC)N=Nc1ccc(S(N)(=O)=O)cc1	/	/	102	-3	i	0.7	/
O=C(/C=C/Nc1ccccc1C(F)(F)F)c1ccco1	33	78	62	6	i	1	/
CN(C1CCCC1)C1CCN(C(=S)Nc2cc(F)cc(F)c2)CC1	7	101	107	-2	i	1	/
COC(=O)C1C(c2ccc(N(C)C)cc2)C(C(=O)OC)S(=O)(=O)CS1(=O)=O (stereo not drawn)	/	/	103	-2	i	0.93	/
CCN(CCCNC(=O)c1c(C)cc(=O)oc1C)c1cccc(C)c1	-45	85	101	-7	i	0.96	-2.7
COCCOc1cc(N2C(=O)CSCC2=O)c(Cl)cc1Cl	/	/	98	-12	/	/	-1.4
O=C(/C(=N\Nc1ccccc1)Sc1nnnn1-c1ccccc1)c1ccccc1	27	80	92	-8	i	0.99	-1.5
CC(=O)Nc1ccc(S(=O)(=O)N2CCCC(C(=O)O)C2)cc1 (stereo not drawn)	/	/	98	0	i	0.96	/
COc1cc(/C=N/NC(=O)c2ccc(COc3ccccc3Cl)o2)cc(Br)c1O	50	169	106	1	i	0.92	3.4
COc1ccccc1-n1c(=O)c2c3c(sc2n2c(SC(C)C)nnc12)CCC3	/	/	330	1	i	0.96	1.0
O=C(CN1C(=O)NC(CCc2ccccc2)C1=O)NC1CC1 (stereo not drawn)	18	32	106	-1	i	1	/
CC1C/C(=N/NC(=O)c2cccc(F)c2)c2ccc(O)cc2C1 (stereo not drawn)	-25	108	113	2	i	1.1	-3.6

Pulled by structure from the entries so far (three):
SMILES	INS promoter inh	INS promoter inh cell count	RGS16-Gao	PKD1 kinase inh	HSV replic up	HSV replic up primary fold	GALR2 ag
CN(C1CCCC1)C1CCN(C(=S)Nc2cc(F)cc(F)c2)CC1	7	101	107	-2	i	1	/
Cc1cc(=O)oc2cc(OCC(=O)N3CCc4ccccc4C3)ccc12	/	/	101	-4	i	1	-0.6
CCN(CC)N=Nc1ccc(S(N)(=O)=O)cc1	/	/	102	-3	i	0.7	/

The list continues.
SMILES	INS promoter inh	INS promoter inh cell count	RGS16-Gao	PKD1 kinase inh	HSV replic up	HSV replic up primary fold	GALR2 ag
O=C(C[n+]1cccc(/C=N/O)c1)N1CCCCCC1	-59	67	96	-8	i	0.96	/
CC1CCN(S(=O)(=O)c2ccc3c(c2)oc(=O)n3CC(=O)NCc2ccc3c(c2)OCO3)CC1	/	/	69	7	i	1	-0.8
COc1ccc(-c2nc(C)c(C(C)=O)n2O)cc1	35	119	100	-7	i	0.88	-0.9
CCOC(=O)N1CCN(C(=O)c2ccc3c(=O)n4c(nc3c2)CCCCC4)CC1	29	116	80	2	i	1.1	-1.6
CSCC[C@H](NC(=O)C(C)Oc1ccc(Cl)cc1)c1nc2ccccc2[nH]1 (stereo partly drawn)	-72	73	103	-19	i	0.8	0.8
CN(C(=O)c1ccc(Cl)c(S(=O)(=O)N2CCOCC2)c1)c1ccccc1C(=O)O	/	/	90	11	i	1.1	-0.6
COC(=O)c1cc(NC(=O)Nc2cc(OC)ccc2OC)cc(C(=O)OC)c1	57	120	93	1	i	0.9	0.2

One compound at a time, as listed above. Order of values: INS promoter inh, INS promoter inh cell count, RGS16-Gao, PKD1 kinase inh, HSV replic up, HSV replic up primary fold, GALR2 ag
O=C(C[n+]1cccc(/C=N/O)c1)N1CCCCCC1 across the screens: -59, 67, 96, -8, i, 0.96, /
CSCC[C@H](NC(=O)C(C)Oc1ccc(Cl)cc1)c1nc2ccccc2[nH]1 (stereo partly drawn) across the screens: -72, 73, 103, -19, i, 0.8, 0.8
CCOC(=O)N1CCN(C(=O)c2ccc3c(=O)n4c(nc3c2)CCCCC4)CC1 across the screens: 29, 116, 80, 2, i, 1.1, -1.6

Source: PubChem BioAssay (several laboratories)
